# Polio RdRp inh = poliovirus RdRp elongation inhibitors, primary screen, biochemical, fluorescence polarization, total intensity; Genome polyprotein (Poliovirus type 1 (strain Mahoney)), P03300; poliovirus polymerase elongation; active compounds read low; % elongation, % (compound at 16.7 µg/mL); hit rate 0.66% among 150,000; AID 588519, 2011; in the data active means % elongation below about 90%; further: some results filed as inactive read as strong as hits
# Target sequence (P03300 1749-2209 limits assumed): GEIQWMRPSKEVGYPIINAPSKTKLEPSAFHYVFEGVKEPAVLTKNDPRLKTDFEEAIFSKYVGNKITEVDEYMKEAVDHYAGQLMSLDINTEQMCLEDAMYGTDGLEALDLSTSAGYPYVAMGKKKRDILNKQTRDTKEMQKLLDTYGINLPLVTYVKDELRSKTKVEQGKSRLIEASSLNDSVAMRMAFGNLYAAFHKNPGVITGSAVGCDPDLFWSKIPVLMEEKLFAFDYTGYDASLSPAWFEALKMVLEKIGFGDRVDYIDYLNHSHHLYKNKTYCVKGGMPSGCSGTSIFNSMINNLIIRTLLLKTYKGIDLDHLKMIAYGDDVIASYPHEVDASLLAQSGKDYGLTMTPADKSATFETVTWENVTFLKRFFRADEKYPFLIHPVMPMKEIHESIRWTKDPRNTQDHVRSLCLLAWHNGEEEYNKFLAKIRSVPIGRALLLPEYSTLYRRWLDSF
# Polio RdRp inh intensity = further read-out of Polio RdRp inh, marked with its call; % elongation; measured here: total intensity read-out; formula for this scale not given here;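 total fluorescence in place of polarization; lower means less elongation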
# Numbers without * were called inactive. Not all compounds are listed. The share of hits here may be higher or lower than overall.
SMILES,Polio RdRp inh,Polio RdRp inh intensity
CCCCN(C)C(=O)CCC(=O)NNc1nc2ccccc2c2nc(C)nn12,81*,79*
COc1ccc(OCc2nc3ccccc3n2Cc2ccccc2Cl)cc1,111,113
CCCOc1ccc(C(=O)Nc2cc3c(cc2N2CCOCC2)n(C)c(=O)n3C)cc1,102,96
CCc1noc(-c2ccc(N3CCC(C)CC3)c([N+](=O)[O-])c2)n1,101,108
Cc1ccccc1Cn1c(=O)n(CCCCC(=O)NCc2ccc3c(c2)OCO3)c(=O)c2ccccc21,107,110
CCc1nc(-c2cc(S(=O)(=O)N3CCN(c4ccc(OC)cc4)CC3)ccc2OC)no1,110,112
CCc1ccc(N(CC)C(=O)c2sc3nc4n(c(=O)c3c2C)CCCC4)cc1,110,111
COc1ccc(OC)c(NC(=O)CCn2cnnn2)c1,106,109
Cc1ccc(-c2ccc(CCC(=O)O)n2-c2ccc(C)c(Cl)c2)cc1,116,116
O=C(Nc1ccc(F)c(Cl)c1)c1cc(S(=O)(=O)NCc2ccc3c(c2)OCO3)ccc1F,107,103
CCc1ccc(OCc2cc(=O)n3cc(C)sc3n2)cc1,109,108
Cc1ccccc1OCCn1c(CCNC(=O)C2CCCCC2)nc2ccccc21,108,112
CCC(=O)N1CCc2cc(Br)cc(S(=O)(=O)NCc3ccccc3)c21,103,104
CCN(c1cccc(C)c1)S(=O)(=O)c1cc2c(cc1C)n(C)c(=O)c(=O)n2C,111,114
Cc1ccc(C)c(Cn2c3ccccc3c3cnn(CC(=O)NC4CCC(C)CC4)c(=O)c32)c1 (stereo not given),106,106

# Structures from the list above containing a halogen:
SMILES,Polio RdRp inh,Polio RdRp inh intensity
COc1ccc(OCc2nc3ccccc3n2Cc2ccccc2Cl)cc1,111,113
Cc1ccc(-c2ccc(CCC(=O)O)n2-c2ccc(C)c(Cl)c2)cc1,116,116
O=C(Nc1ccc(F)c(Cl)c1)c1cc(S(=O)(=O)NCc2ccc3c(c2)OCO3)ccc1F,107,103
CCC(=O)N1CCc2cc(Br)cc(S(=O)(=O)NCc3ccccc3)c21,103,104

# Next results.
SMILES,Polio RdRp inh,Polio RdRp inh intensity
COc1cc(OC)c(N(C)C(=O)C2CCCN(c3ncnc4c3nc3n4CCCCC3)C2)cc1Cl (stereo not given),103,108
Cc1ccc(Nc2nnc(-c3ccc(C)c(S(=O)(=O)N4CCCCC4)c3)c3ccccc23)cc1,102,103
O=C(Nc1ccc2oc(-c3cccc4c(Br)cccc34)nc2c1)c1ccc(Br)cc1,102,109
CC(C)Oc1ccc(CNC(=O)c2ccc(CS(=O)Cc3ccccc3Cl)o2)cc1 (stereo not given),99,93
CCN(CC)c1ccc(NC(=O)Cn2cc3c(n2)CCCC3)c(C)c1,106,97
COc1cccc(C(=O)Nc2c(C(=O)N3CCN(c4ccc(F)cc4)CC3)oc3ccccc23)c1,104,106
CCOC(=O)C1CCN(C(=O)c2nn(-c3ccc(OC)cc3)c(=O)c3c2c2ccccc2n3C)CC1,110,112
CC(C)Oc1ccc(C(=O)NCC(c2ccc(N(C)C)cc2)N2CCc3ccccc32)cc1 (stereo not given),105,109
CCc1ccc(NC(=O)CCNS(=O)(=O)c2ccc3c(c2)CCCC(=O)N3)cc1,110,110
CCC(C(=O)NCc1ccccc1OC)n1nc(C)n2c(cc3sccc32)c1=O (stereo not given),108,112
CCCn1cc(S(=O)(=O)c2ccc(C)c(C)c2)c(=O)c2cc(F)c(N3CCC(C)CC3)cc21,106,109
Cc1c(Cl)cccc1NC(=O)C1CCN(c2nc3ccccc3[nH]2)CC1,103,106
CCc1ccc(NC(=O)c2cc(S(=O)(=O)N3CCCC3)ccc2F)cc1,103,107
Cc1ccc2c(c1)sc1nc(=O)n(-c3ccc(Cl)cc3)c(=O)n12,107,110
Cc1cc(Nc2cccc(Br)c2)n2c(nc3ccccc32)c1C#N,96,97
CCC(=O)N1CCc2cc(S(=O)(=O)NC(Cc3ccccc3)C(=O)NCc3ccc(C)cc3)ccc21 (stereo not given),106,104
CCN(CC)C(=O)Cn1c(=O)n(CC2CCC(C(=O)NC)CC2)c(=O)c2sccc21 (stereo not given),108,93
COc1cc(OC)cc(C(=O)Nc2cc3c(cc2N2CCOCC2)n(C)c(=O)n3C)c1,106,109
COc1ccc(NC(=O)C2CCCN2S(=O)(=O)c2cccc3cccnc23)cc1OC (stereo not given),105,108
Cc1ccc(NC(=O)Nc2nnc(N3CCCC3)s2)cc1C,101,106
O=C(NCCc1ccc(Cl)cc1)C1(c2cccs2)CCOCC1,98,102
Cc1ccc(C(=O)c2cn(CC(=O)Nc3ccc(C)cc3Cl)c3nc(C)ccc3c2=O)cc1,104,112
COC(=O)c1cc(-c2ccc(OC)c(OC)c2)c2c(=O)[nH]c(=O)n(C)c2n1,108,106
O=C(CSc1nccn1C1CCCC1)Nc1cccc(F)c1,104,99
CC(=O)Nc1nonc1-c1nnc(SCC(=O)Nc2c(C)cccc2C)n1-c1ccccc1,104,100
Cc1cc(=O)n(Cc2ccc(F)cc2Cl)c2c1c(C)nn2C,107,115
CCC(C)(C)C1CCc2c(sc(NC(=O)C3c4ccccc4Oc4ccccc43)c2C(N)=O)C1 (stereo not given),106,102
COc1ccccc1Cc1nc2ccccc2nc1SCC(=O)Nc1cccc(Cl)c1C,108,113
COc1ccc(N2CCN(CCCNC(=O)c3nnc(Cc4ccc(F)cc4)o3)CC2)cc1,96,96
CCOC(=O)c1ccc(NS(=O)(=O)c2cc(Br)cc3c2N(C(C)=O)C(C)C3)cc1 (stereo not given),107,108
CCOc1ccc(-n2c(CC)nc3c(cnn3-c3ccc(Cl)cc3)c2=O)cc1,106,104
CCN(c1cccc(C)c1)S(=O)(=O)c1cc(Br)cc2c1N(C(C)=O)C(C)C2 (stereo not given),107,110
COc1ccc(-n2ncc(C(=O)Nc3ccc(C)cc3Cl)c2C2CCN(C(=O)OC(C)(C)C)CC2)cc1,107,104
Cc1cccc(NS(=O)(=O)c2ccc3c(c2)[C@H]2C=CC[C@H]2[C@@H](c2ccc(F)cc2)N3)c1,126,156
Cc1ccc2oc(-c3ccc(C)c(NC(=O)c4ccc5c(c4)OCCO5)c3)nc2c1,107,109
CCc1ccc(S(=O)(=O)c2cnc(SCC(=O)Nc3ccc(OC)cc3OC)[nH]c2=O)cc1,103,104
COc1ccc(CNC(=O)C2CCCN(S(=O)(=O)N(C)c3ccc(F)cc3)C2)cc1OC (stereo not given),108,106
COc1cc(Cl)c(C)cc1NC(=O)c1cn(CC(C)C)c(=O)c2cc(OC)c(OC)cc12,108,112
CC1CCCN(C(=O)CCS(=O)(=O)c2cc3c(cc2Cl)NC(=O)CO3)C1 (stereo not given),109,108
O=C(CSc1nc2c([nH]c3ccccc32)c(=O)n1-c1ccc(F)cc1)N1CCc2ccccc21,109,113
CCCN1CCN(c2ncnc3sc(C(=O)Nc4ccc(N(CC)CC)cc4C)c(C)c23)CC1,97,95
CCOC(=O)c1cc(S(=O)(=O)Nc2cc(OC)ccc2OC)[nH]n1,99,92
CCN(CC)S(=O)(=O)c1ccc2c(c1)N(CC(=O)N1CCN(c3ccc(OC)cc3)CC1)C(=O)CO2,106,108
N#Cc1ccc(NC(=O)COCc2cc(-c3ccc(F)cc3)on2)cc1,108,109
COc1cc(C(=O)Nc2ccc3c(c2)N(C2CCCC2)C(=O)c2ccccc2S3)cc(OC)c1OC,101,106
O=C(Cn1ncc2c3ccccc3n(Cc3ccc(Cl)cc3)c2c1=O)NCc1cccs1,134,151
COc1cccc(-n2cc(C(=O)Oc3cccc(C(F)(F)F)c3)c3ccccc3c2=O)c1,105,103
COc1ccccc1-c1noc(-c2ccc(N(C)Cc3ccccc3)c([N+](=O)[O-])c2)n1,109,114
COC(=O)c1ccc(OCC2c3cc(OC)c(OC)cc3CCN2C(=O)c2ccccc2F)cc1 (stereo not given),109,106
CC(=O)Nc1cc(C(=O)Nc2ccc3c(c2)N(C)C(=O)c2ccccc2S3)ccc1C,111,117
COc1ccc(NC(=O)Cn2c(=O)n(-c3ccc(C)cc3)c(=O)c3c2cnn3C)cc1,108,105
O=C(NCc1cccnc1)C1CCN(Cc2cc3ccccc3n2Cc2ccccc2)CC1,110,101
CCOc1ccc(OCC)c(NC(=O)c2cc3ccccn3n2)c1,104,109
CC1CCN(C(=O)Cn2cc(SCc3cccc(F)c3)c3ccccc32)CC1,116,120
Cc1ccc(CCNC(=O)CCS(=O)(=O)c2cc3c(cc2Cl)NC(=O)CO3)cc1,104,101
CCCc1nn2c(=O)cc(COC(=O)c3ccccc3NC(=O)C3CCCCC3)nc2s1,107,109
COc1cc(C)ccc1OCCSc1nc2ccc(NC(=O)c3ccc4c(c3)OCO4)cc2s1,104,105
COc1ccc(N(Cc2cccs2)C(=O)c2ccc(OCC(C)C)cc2)cc1,99,90
CCSc1nc2c([nH]c3ccccc32)c(=O)n1-c1ccc(F)cc1,104,110
O=C(CSc1nc(-c2ccco2)nc2cc(=O)[nH]n12)Nc1ccccc1Cl,102,106

# The list continues:
SMILES,Polio RdRp inh,Polio RdRp inh intensity
Cc1cccc(N(CC(=O)Nc2cccc(Cl)c2C)S(C)(=O)=O)c1C,104,106
COc1ccc(N2CCN(c3ncccc3-c3nc(-c4ccccc4C)no3)CC2)cc1,108,111
CCOC(=O)c1cc(-c2ccc(C)cc2)n(CCC(=O)Nc2ccc(C(C)C)cc2)c1C,105,111
COc1cccc(C(=O)NCc2cn3cccc(C)c3n2)c1,112,112
COc1cc(C(=O)Nc2ccc(-c3nc4cc(C)c(C)cc4o3)cc2)cc(OC)c1OC,105,115
Cc1ccc(-n2nnnc2SCC(=O)NCCc2ccccc2)cc1C,105,108
CCCCCCC(=O)Nc1ccc2nc3c(=O)n(C)c(=O)n(C)c3nc2c1C,109,113
CCOc1ccc(OCC(=O)NCCS(=O)(=O)N2CCN(c3ccc(F)cc3)CC2)cc1,110,111
O=C(CSc1c2c(nc3ccc(Cl)cc13)CCCC2)N1CCN(c2ccc(Cl)cc2)CC1,105,109
Cc1cc(C)c(Cn2c3ccccc3c3cnn(CC(=O)NC4CCC(C)CC4)c(=O)c32)c(C)c1 (stereo not given),102,104
CCOC(=O)c1c(NC(=O)CSc2nc(-c3ccc(OC)cc3)cc(C(F)(F)F)n2)sc(C)c1C,86*,84*
CCOC(=O)c1cnc2c(ccc3ccccc32)c1Nc1ccccc1O,107,108
O=C(CSc1nnc(-c2ccccc2)o1)N1CCCc2ccccc21,102,110
Cc1ccc(CCNC(=O)CN2C(=O)COc3ccc(S(=O)(=O)N4CCCC4)cc32)cc1,115,116
COc1cccc(OCc2nc3ccccc3n2CCOc2ccccc2C)c1,106,102

# In a second layout: results already given.
Structure	Polio RdRp inh	Polio RdRp inh intensity
CCOc1ccc(OCC(=O)NCCS(=O)(=O)N2CCN(c3ccc(F)cc3)CC2)cc1	110	111
Cc1cccc(N(CC(=O)Nc2cccc(Cl)c2C)S(C)(=O)=O)c1C	104	106
COc1cc(C(=O)Nc2ccc(-c3nc4cc(C)c(C)cc4o3)cc2)cc(OC)c1OC	105	115

# Compounds above containing a CF3 group:
SMILES,Polio RdRp inh,Polio RdRp inh intensity
COc1cccc(-n2cc(C(=O)Oc3cccc(C(F)(F)F)c3)c3ccccc3c2=O)c1,105,103
CCOC(=O)c1c(NC(=O)CSc2nc(-c3ccc(OC)cc3)cc(C(F)(F)F)n2)sc(C)c1C,86*,84*

# (next part)
SMILES,Polio RdRp inh,Polio RdRp inh intensity
Cc1ccc(NC(=O)Cn2c(=O)n(CC3CCCO3)c(=O)c3ccccc32)cc1 (stereo not given),105,106
Cc1cc(C)c2c(n1)nn1c(C)c(CCC(=O)Nc3cccc(C)c3C)c(C)nc21,104,106
N#Cc1ccccc1NC(=O)Cn1cnc2onc(-c3cccc(F)c3)c2c1=O,112,110
COc1ccc(-c2nc3ccccc3s2)cc1NC(=O)COc1cccc(C)c1,103,109
Cc1cccc(N2CCN(C(=O)c3cn(CC(C)C)c(=O)c4c3c3ccccc3n4C)CC2)c1C,108,109
COCCn1ccc2c(OCC(=O)Nc3cccc(OC)c3)cccc2c1=O,103,101
Cc1cccc2nc(-c3ccc(N(C)C)cc3)c(Nc3ccc4c(c3)OCO4)n12,103,111
COc1ccc(-c2nc(C)c(CCNS(=O)(=O)c3cc(Cl)ccc3Cl)s2)cc1,104,106
O=c1c2sc3ccccc3c2n(Cc2cccc(C(F)(F)F)c2)c(=O)n1-c1ccccc1,107,111
COc1cc2c(cc1NC(=O)C(C)Oc1ccccc1)oc1ccccc12 (stereo not given),104,107
CCc1ccc(C(=O)c2cn(CC(=O)Nc3cc(OC)ccc3OC)c3nc(C)ccc3c2=O)cc1,106,103
Cc1nn2c(C)c(C(=O)N3CCN(c4ccccc4F)CC3)cnc2c1-c1ccc(F)cc1,108,103
Cc1ccc(S(=O)(=O)c2nc(S(C)(=O)=O)sc2N(C)Cc2ccccc2)cc1,110,110
COc1ccc(S(=O)(=O)NCC(c2cccs2)S(=O)(=O)c2ccc(C)cc2)cc1F (stereo not given),109,111
CCOC(=O)c1ccc(NC(=O)CCCn2c(=O)c3cccn3c3ccccc32)cc1,110,103

# Reformatted bar-delimited: entries from further up.
Structure | Polio RdRp inh | Polio RdRp inh intensity
COCCn1ccc2c(OCC(=O)Nc3cccc(OC)c3)cccc2c1=O | 103 | 101
Cc1cccc2nc(-c3ccc(N(C)C)cc3)c(Nc3ccc4c(c3)OCO4)n12 | 103 | 111
COc1ccc(-c2nc(C)c(CCNS(=O)(=O)c3cc(Cl)ccc3Cl)s2)cc1 | 104 | 106

# (further entries)
SMILES,Polio RdRp inh,Polio RdRp inh intensity
COc1ccc(-c2cc3ncc(C(=O)c4cc([N+](=O)[O-])ccc4O)cn3n2)cc1,102,103
COC(=O)c1cc(NC(=O)CCc2c(C)nc3c4c(C)cc(C)nc4nn3c2C)cc(C(=O)OC)c1,102,106
COCCCNC(=O)C(=O)Nc1c2c(nn1-c1cccc(Cl)c1)CSC2,109,112
Nc1c(-c2nc(-c3ccc4c(c3)OCO4)cs2)c2ccccn2c1C(=O)c1ccc(Cl)cc1,102,120
O=C(NCc1ccc(Cl)cc1)C(=O)NCC(c1ccco1)S(=O)(=O)c1cccs1 (stereo not given),110,109
COc1cc(C(=O)Nc2nonc2-c2ccc(Cl)cc2)cc(OC)c1OC,102,106
